High-throughput results as filed in PubChem BioAssay.
GIV-Gai inh = blocks GIV peptide binding to rat Galpha-i3 | hit rate 0.42% among 210,000 | Galpha-i3/FITC-GIV peptide fluorescence polarization, 90 min; hits give low values; scaled: aluminum fluoride 0%, vehicle 100% | AID 1224905 | percent of control (FP), % (test concentration not listed);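 active means replicate mean at 85% of control or lower, very high polarization wells dropped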;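 further: wells of about 15 µL received 100 nL stock; the first replicate is given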
Target sequence (P08753 whole entry, looked up): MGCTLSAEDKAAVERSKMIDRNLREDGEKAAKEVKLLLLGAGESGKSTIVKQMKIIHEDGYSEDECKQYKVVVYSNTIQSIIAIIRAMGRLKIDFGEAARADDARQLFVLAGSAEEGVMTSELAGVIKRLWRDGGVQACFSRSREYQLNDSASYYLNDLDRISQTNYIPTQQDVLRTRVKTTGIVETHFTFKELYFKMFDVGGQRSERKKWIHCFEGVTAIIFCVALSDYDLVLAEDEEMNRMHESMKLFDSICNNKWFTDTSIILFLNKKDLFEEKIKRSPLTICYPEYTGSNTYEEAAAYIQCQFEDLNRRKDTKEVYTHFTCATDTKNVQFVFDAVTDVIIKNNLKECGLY
HCMV UL50-53 inh = cytomegalovirus nuclear egress complex inhibition; HTRF UL50-UL53 interaction, normalized percent inhibition; inhibition, % (no concentration beside the values); hit rate 0.15% among 190,000; AID 1918969;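 active means both replicates at 50% or more, plus weaker picks with an unusually low signal ratio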;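 further: stock transfer was 100 nL into about 20 µL; 0% = negative control wells and 100% = wells with untagged competitor protein; inactives centre near -12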
Sa growth inh = blocks Staphylococcus aureus growth | hit rate 0.53% among 170,000 | relative growth, % (no concentration beside the values) | S. aureus RN4220 growth, OD600, 20 h, 42 °C; hits give low values;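 active means growth at 42 °C up to 50% and 20 or more points under that at 30 °C, or under 10% at both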;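 further: 300 nL library stock went into each well; scaled to the means of positive and negative controls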
Sa growth inh second temp = recorded beside Sa growth inh, whose call it bears; relative growth, %; measured here: growth at 30 °C;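 optical density after 20 h as mean of two plates; 100% = untreated growth and lower means inhibition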
Active calls of the source: *; . = not tested or not shown; & = joins results of further samples.

molecule,GIV-Gai inh,HCMV UL50-53 inh,Sa growth inh,Sa growth inh second temp
O=C(CCCN1C(=O)C(c2ccccc2)Oc2cccnc21)NCc1cccc(Cl)c1 (stereo unspecified),100,27,.,.
Cc1scc(CN2CCN(Cc3ccc4c(c3)OCO4)CC2)c1C,103,-9,.,.
COc1ccc(-n2cnc3cc(C(=O)NCC4CCCO4)ccc32)cc1 (stereo unspecified),110,.,95,87
CCC(Oc1ccccc1F)C(=O)Nc1c(C(=O)c2ccccc2)oc2ccccc12 (stereo unspecified),105,-18,85,87
O=C(O)C1C2CCC(C2)C1C(=O)c1ccccc1 (stereo unspecified),.,-8,113,117
CCOC(=O)c1ccc(NC(=O)c2nsc3ccccc23)cc1,109&104,-1&-18,104,98
CCC1CCCCN1S(=O)(=O)c1cc2c(cc1C)NC(=O)CO2 (stereo unspecified),111,.,102,83
Cc1nnc(Nc2ccc(OCC(N)=O)cc2)c2ccccc12,98,-2,.,.
COC(=O)c1sc2ccccc2c1NC(=O)c1ccc(N2C(=O)CCC2=O)cc1,108,-18,90,87
Cc1cccc(NC(=O)c2c(C)oc3ncnc(N4CCCCC4)c23)c1C,100,.,105,100
Cc1c(C)c2c(c(C)c1O)CCC(C)(CCCC(C)CCCC(C)CCCC(C)C)O2 (stereo unspecified),.,-10,94,86
O=C(NCCN1CCc2ccccc2C1)Nc1cccc2c1CCCC2,100,-23,.,.
CCc1ccccc1NS(=O)(=O)c1ccc2c(c1)CC(C)N2C(=O)C1CC1 (stereo unspecified),107,.,113,83
CCOc1ccc(C(=O)c2cn(CC(=O)Nc3ccc(OC)cc3)c3cc4c(cc3c2=O)OCO4)cc1,105,-37,86,88
CCN(CC)S(=O)(=O)c1ccc2c(c1)N(CC(=O)Nc1cccc(C(C)=O)c1)C(=O)CO2,106,-20,97,81
CCN(CC)CCCNC(=O)c1cc(C)nc2c1c(=O)n(C)c(=O)n2C,103,-26,.,.
O=C(c1ccccc1O)N1CCN(c2ccccc2)CC1,101,-1,99,108
Cc1cccc(CNC(=O)CCCn2c(=O)c3cccn3c3ccc(F)cc32)c1,100,6,92,76
CCCOc1ccc(-c2nc(N3CCCCC3)c3ccccc3n2)cc1,110,-7,99,95
CCN(CC)c1nn2c(=O)c(C(=O)NCC3CCCO3)cnc2s1 (stereo unspecified),100,-24,.,.
Cc1csc(/N=C/N(C)C)n1,.,-12,76,88
COc1cccc(CNC(=O)N2CCc3c(sc4c3CCCC4)C2c2ccc(F)cc2)c1 (stereo unspecified),102,.,77,88
COc1ccc(-c2cc(C)no2)cc1S(=O)(=O)N1CCN(c2ccccc2F)CC1,111,.,91,98
CCOc1ccc(NC(=O)CN(C)C(C)c2nnc(-c3cccs3)o2)cc1OCC (stereo unspecified),.,-33,87,76
CC(C)(C)c1ccc(S(=O)(=O)c2c(C(=O)N3CCCCC3)cnc3ccccc23)cc1,109,5,.,.

Additional records follow.
molecule,GIV-Gai inh,HCMV UL50-53 inh,Sa growth inh,Sa growth inh second temp
N#CC1(C#N)C(c2ccccc2Cl)C(C(=O)C2CC2)N2C=CC=CC21 (stereo unspecified),.,-6,113,102
CC(=O)N1N=C(c2cc(-c3ccccc3)nc3ccccc23)OC1c1ccc(C(=O)O)cc1 (stereo unspecified),101,-100,.,.
CCCCOc1ccc(C(=O)Nc2nnc3n2CCS3)cc1,102,.,99,76
CSc1cccc(NC(=O)CN(C)S(=O)(=O)c2ccc3c(c2)CC(C)N3C(C)=O)c1 (stereo unspecified),96,.,92,90
CC1=C(C(=O)Nc2ccc(C)cc2C)C2(CCN(S(C)(=O)=O)CC2)OC1=O,103,-20,94,81
Cn1c(=O)cc(OCC(=O)NCCC2=CCCCC2)c2ccccc21,98,.,109,91
Cc1cccc(-c2nnc(SCC3CNC(=O)O3)n2-c2ccc(Cl)cc2)c1 (stereo unspecified),.,2,100,94
Cn1c(SCc2nc(-c3cccs3)no2)nnc1-c1ccncc1,101,.,85,83
COC(=O)c1sc(N)c(C(=O)OC)c1COC(=O)C1CC(=O)N(Cc2ccco2)C1 (stereo unspecified),.,2,71,85
N#CCc1ccccc1C(=O)O,.,1,108,92
COc1ccccc1OC(C)C(=O)Nc1cccc(-c2nc3ccccc3s2)c1 (stereo unspecified),104,-12,96,66
CC1=C(C(=O)NCc2ccccc2C)C2(CCCCCC2)OC1=O,98,.,102,92
O=C1OC(C(=O)NCCc2ccccc2)Cc2ccccc21 (stereo unspecified),105,-14,96,89
O=C(OCC(=O)N1CCCC1)c1cc(-c2ccco2)nc2ccccc12,.,-91,105,78
Cc1nc(-c2ccccc2O)n(S(=O)(=O)N(C)C)n1,99,-19,110,84
Cc1ccc(CNC(=O)CSc2nc(NC3CCCCC3)c3ccccc3n2)cc1,103,.,108,87
CCOC(=O)c1ccccc1NC(=O)c1cn(CC(C)C)c(=O)c2cc(OC)c(OC)cc12,102,-11,100,96
CC(C)C(=O)Nc1nc(NC(=O)C(C)C)nc(-c2ccccc2C(F)(F)F)n1,105,-16,93,86
Cc1[nH]c(C(=O)Nc2ccccc2F)c(C)c1S(=O)(=O)N1CCCCC1,113,-11,.,.
CCOC(=O)N1CCC(Nc2nc(Nc3ccccc3)nc(OC)n2)CC1,105,-9,87,57
Cn1c(=O)c2c(-c3ccccc3)n(C3CCCCC3)cc2n(C)c1=O,103,2,101,97
Cn1c(=O)c(SCC(=O)NCCCN2CCc3ccccc3C2)nc2ccccc21,105,-56,.,.
O=C(O)CCC(=O)OC[C@@H](NC(=O)C(Cl)Cl)[C@H](O)c1ccc([N+](=O)[O-])cc1,.,-21,83,49
COC(=O)c1c(NC(=O)CSc2nnc3sc4ccccc4n23)sc(Cl)c1-c1ccccc1,102,-18,.,.
Clc1ccc(C2Nc3ccccc3O2)cc1 (stereo unspecified),97,-29,56,36

Next part.
molecule,GIV-Gai inh,HCMV UL50-53 inh,Sa growth inh,Sa growth inh second temp
Cc1cc(C)nc(NNC(=O)NC2CCCCC2)n1,.,10,111,96
Cc1cccc(NC(=O)/C=N/OC(=O)Nc2ccccc2)c1,106,0,91,87
COc1ccc(OC)c(CNC(=O)CCc2nnc(C(=O)Nc3cccc(Cl)c3)s2)c1,97,-20,.,.
CCCSCCCNC(=O)c1ccc2c(c1)sc1nc(-c3ccc(OCC)cc3)cn12,106,.,125,79
O=C(NC1CCS(=O)(=O)C1)c1cc2n(n1)CCCN(Cc1ccc(F)cc1)C2=O (stereo unspecified),102,-26,.,.
Cc1nc2c3c(-c4ccccc4)nc(N4CCCCC4)nc3nn2c(C)c1CCC(=O)O,105,-1,86,92
CCC(=O)N1c2ccccc2NC2=C(C(=O)CC(c3cc(OC)c(OC)c(OC)c3)C2)C1c1ccc(OC)c(OC)c1 (stereo unspecified),103,-22,.,.
CCOC(=O)CC1=CSC(NC)N1c1c(C)cc(C)cc1C (stereo unspecified),.,14,75,70
Cc1ccc(/C=N/n2cnc3sc4c(c3c2=O)CCCC4)o1,98,.,79,97
Cc1cccn2c(=O)c(/C=C3\SC(=S)N(C(C)C)C3=O)c(N(C)Cc3ccccc3)nc12,114,4,.,.
Cc1c(Cl)ccc2c(=O)c(C(=O)O)c[nH]c12,112,-15,89,71
CCOC(=O)c1oc2ccc(S(=O)(=O)Nc3cc4c(cc3C)n(C)c(=O)c(=O)n4C)cc2c1C,101,-41,111,82
O=C(NCCN=C1NS(=O)(=O)c2ccccc21)c1ccc(F)cc1,101,-11,90,88
COc1ccc(-c2noc(CCC(=O)Nc3ccc4c(c3)OCCO4)n2)cc1,100,0,92,87
COc1ccc(Nc2cc3sc4cc(C)ccc4[nH]c3c3c(=O)c4ccccc4c(=O)c23)cc1,108,-7,.,.
COc1ccc(OCCn2cc(C#N)c3ccccc32)cc1,.,1,113,101
O=C(NCCc1ccccc1)C1CC(=O)N(CCc2ccccc2)C1 (stereo unspecified),106,2,83,85
COC(=O)c1ccc(NC(=O)CCNS(=O)(=O)c2cccc3nsnc23)cc1,103,-100,100,88
CCc1ccc(NC(=O)Cn2cnc3c(cnn3C)c2=O)cc1,98,0,106,94
COC(=O)/C=C/c1ccc(OC(=O)c2ccncc2)cc1,.,-36,109,92
Cc1noc(C)c1COc1ccc(C(=O)Nc2ccc(F)c(Cl)c2)cc1,.,-2,107,94
Cc1ccc(-n2ncc3c(Nc4cccc(C)c4)ncnc32)cc1,105,.,100,102
CCOC(=O)N1CCC(NC(=O)c2cc3c(-c4ccccc4F)nn(C)c3s2)CC1,103,.,115,91
O=P(CCN1CCOCC1)(c1ccccc1)c1ccccc1,.,-8,96,87
COc1ccc(-c2[nH]nc(SC)c2C#N)cc1,107,-19,81,73

Next compounds.
molecule,GIV-Gai inh,HCMV UL50-53 inh,Sa growth inh,Sa growth inh second temp
O=C(CSc1ccccc1Cl)NC1CCCCCC1,.,-26,116,88
CCN(c1cc(C)cc(C)c1)S(=O)(=O)c1nnc(NC(=O)C2CCCCC2)s1,106,-1,110,92
CCN(CC)CCCNc1cc(C)c2ccc(OC)cc2n1,.,15,121,96
Nc1ccc2oc(-c3ccc(-c4nc5cc(N)ccc5o4)cc3)nc2c1,103,-10,84,55
Cn1nc(-c2ccccc2F)c2cc(C(=O)Nc3ccc(S(N)(=O)=O)cc3)sc21,105,11,103,81
COc1ccc(-c2cc(C(=O)Oc3ccc(Cl)c(C)c3)no2)cc1,100,-13,.,.
COc1ccc(-c2c(C)nn3c(N4CCC(C(=O)NCCN(C)C)CC4)cc(C)nc23)cc1OC,104,-1,.,.
O=C1NC(=S)N/C1=C/c1ccc(-c2c(Br)cc([N+](=O)[O-])cc2Br)o1,105,1,.,.
Oc1ccc(/C=C2/NC(=S)Nc3nc(Nc4ccccc4)sc32)cc1,.,-24,84,76
C=CCn1c2ccc(Br)cc2c2nc3ccccc3nc21,103,.,114,90
CCOC(=O)/C(C#N)=C1\CCCCCN1,.,-17,101,93
COC(=O)c1cc2sc(Cl)cc2n1Cc1nc(-c2ccc(OC)c(OC)c2)oc1C,105,-15,94,76
COc1ccc(N2C(=O)C(CC(=O)Nc3ccccc3)N(CCC3=CCCCC3)C2=O)cc1 (stereo unspecified),101,-1,110,91
CCCN1CCCc2cc(CN)ccc21,65*,-13,84,42
O=C(CSC1=Nc2ccccc2N=C(c2ccc(F)cc2)C1)Nc1ccccc1,106,.,102,94
CC1(C)C(c2ccco2)=[N+]([O-])C(C)(C)N1O,97,-9,102,87
CCC1Sc2ccc(S(=O)(=O)CCC(=O)N3CCCc4ccccc43)cc2NC1=O (stereo unspecified),100,-12,91,88
Cn1c(=O)n(-c2ccc(F)cc2)c2nc(-c3ccc(Cl)cc3)nc(C(N)=O)c21,105,-5,.,.
CN(C)CCNC(=O)c1cnc2sc3c(n2c1=O)CCCCCC3,102,-12,.,.
CCOc1ccc(N2C(=O)c3cc4sccc4n3CC2(C)C(=O)NC2CCCCC2)cc1 (stereo unspecified),100,0,.,.
Cc1cc(C)nc(NS(=O)(=O)c2ccc(N=c3ssc4c3-c3ccccc3NC4(C)C)cc2)n1,102,-14,.,.
CN1CCN(c2oc(-c3ccc(S(=O)(=O)N4CCOCC4)cc3)nc2C#N)CC1,100,-70,.,.
CCCn1cnc2nc(CSc3ccccc3NC(=O)Nc3ccc(C)cc3)cc(=O)n21,103,-9,.,.
CC(Oc1ccccc1)C(=O)Nc1ccc(-c2nnc(-c3ccccc3)o2)cc1 (stereo unspecified),109,-8,117,81
CN1C(=O)C(C)(C)c2cc(S(=O)(=O)N3CCC(N(C)CC4CCCO4)CC3)ccc21 (stereo unspecified),103,-12,.,.

Carrying on:
molecule,GIV-Gai inh,HCMV UL50-53 inh,Sa growth inh,Sa growth inh second temp
O=C(O)c1ccc2nc(-c3ccccc3)sc2c1,95,.,83,81
O=C(Cn1nc(Cc2cccnc2)c2ccccc2c1=O)NCCc1ccc(Cl)cc1,103,.,106,94
Cc1cc(C)nc(N/N=C/c2c(O)n(C)c(=O)n(C)c2=O)n1,.,-16,72,86
Cn1c(=O)oc2cc(S(=O)(=O)N3CCCC(C(=O)Nc4ccc(Br)cc4F)C3)ccc21 (stereo unspecified),108,-9,91,111
O=C(NCCCN1CCOCC1)c1cnn2c(-c3ccccc3)cc(-c3ccccc3)nc12,105,-54,.,.

4 compounds picked at random from those above:
molecule,GIV-Gai inh,HCMV UL50-53 inh,Sa growth inh,Sa growth inh second temp
O=C(O)c1ccc2nc(-c3ccccc3)sc2c1,95,.,83,81
Cc1cc(C)nc(N/N=C/c2c(O)n(C)c(=O)n(C)c2=O)n1,.,-16,72,86
O=C(Cn1nc(Cc2cccnc2)c2ccccc2c1=O)NCCc1ccc(Cl)cc1,103,.,106,94
O=C(NCCCN1CCOCC1)c1cnn2c(-c3ccccc3)cc(-c3ccccc3)nc12,105,-54,.,.

Profiles, looked up by structure:
CCOC(=O)CC1=CSC(NC)N1c1c(C)cc(C)cc1C (stereo unspecified) is listed as GIV-Gai inh = .; HCMV UL50-53 inh = 14; Sa growth inh = 75; Sa growth inh second temp = 70
CCC(=O)N1c2ccccc2NC2=C(C(=O)CC(c3cc(OC)c(OC)c(OC)c3)C2)C1c1ccc(OC)c(OC)c1 (stereo unspecified) is listed as GIV-Gai inh = 103; HCMV UL50-53 inh = -22; Sa growth inh = .; Sa growth inh second temp = .
